HIV Env fusion: inhibitors of HIV-1 Env-driven cell-cell fusion, primary screen, HeLa-JRFL effector, CEM21 target cells, luciferase; inhibition, % at 12.3 µM; 360,000 compounds, 1.1% hits;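 active = mean replicate inhibition score of at least 50 and every replicate individually at or above 50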;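 also: 0% = plate neutral controls and 100% = maraviroc near 300 nM; one replicate is shown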
Yeast UUG start: modulators of yeast start codon fidelity, primary screen, whole organism, S. cerevisiae, single point, plate reader. S. cerevisiae UUG-firefly luciferase reporter, luminescence/redox ratio. activity score, % at 18.7 µM. 350,000 compounds, 0.13% hits. AID 602363, 2012;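 active = replicate mean at a twofold rise or more, about +100% in these data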;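 also: firefly luciferase made from a UUG start codon reports start codon fidelity; reporter light over untreated wells divided by growth signal over untreated wells; some hits fall short of that in this replicate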
Starred values were filed as active, the others as inactive; [ ] = remark or other dose. A portion of the library. The share of hits here may be higher or lower than overall.

SMILES | HIV Env fusion | Yeast UUG start
Cc1noc(C)c1NC(=O)N(C)C[C@@H]1OCCCC[C@@H](C)Oc2ccc(N(C)C)cc2C(=O)N([C@@H](C)CO)C[C@@H]1C | 6[16.7 µM] | 1
COCC(=O)Nc1ccc2c(c1)[C@H]1C[C@H](CC(=O)NCc3ccccc3)O[C@H](CO)[C@H]1O2 | 17[16.7 µM] | -5
COCC(=O)N1[C@H](C#N)[C@H](c2ccc(C#Cc3ccccc3F)cc2)[C@@H]1CO | 2[16.7 µM] | 2
CCNC(=O)C[C@@H]1CC[C@@H]2[C@@H](COc3ccc(NC(=O)NC(C)C)cc3C(=O)N2C)O1 | -1[16.7 µM] | -8
COc1ccc(NC(=O)Nc2ccc3c(c2)C(=O)N([C@H](C)CO)C[C@@H](C)[C@@H](CN(C)C(=O)Nc2ccc(F)cc2)O3)cc1 | 3[16.7 µM] | 22
CC(C)C#Cc1ccc([C@@H]2[C@H](C#N)N(C(=O)CN(C)C)[C@H]2CO)cc1 | 12[16.7 µM] | 5
CC(C)C#Cc1ccc2c(c1)O[C@H](CN(C)C(=O)c1cccnc1)[C@@H](C)CN([C@H](C)CO)S2(=O)=O | 3[16.7 µM] | 0
Cc1ccc(-c2ccc3c(c2)O[C@H](CN(C)C(=O)CN(C)C)[C@@H](C)CN([C@H](C)CO)S3(=O)=O)cc1 | 7[16.7 µM] | 1
CC(C)C#Cc1cnc2c(c1)C(=O)N([C@@H](C)CO)C[C@@H](C)[C@@H](CN(C)Cc1ccccn1)O2 | 12[16.7 µM] | -13
COc1ccc(NC(=O)N(C)C[C@@H]2Oc3ccc(NC(=O)NC(C)C)cc3CC(=O)N([C@H](C)CO)C[C@H]2C)cc1 | -14[16.7 µM] | -9

In the list so far, these contain fluorine:
SMILES | HIV Env fusion | Yeast UUG start
COCC(=O)N1[C@H](C#N)[C@H](c2ccc(C#Cc3ccccc3F)cc2)[C@@H]1CO | 2[16.7 µM] | 2
COc1ccc(NC(=O)Nc2ccc3c(c2)C(=O)N([C@H](C)CO)C[C@@H](C)[C@@H](CN(C)C(=O)Nc2ccc(F)cc2)O3)cc1 | 3[16.7 µM] | 22

Further structures.
SMILES | HIV Env fusion | Yeast UUG start
Cc1noc(C)c1NC(=O)Nc1ccc2c(c1)C(=O)N([C@H](C)CO)C[C@H](C)[C@@H](CN(C)Cc1ccccc1)OCCCC[C@H](C)O2 | -4[16.7 µM] | 5
Cc1noc(C)c1NC(=O)Nc1ccc2c(c1)C(=O)N([C@@H](C)CO)C[C@H](C)[C@@H](CN(C)C(=O)NC1CCCCC1)OCCCC[C@H](C)O2 | 30[16.7 µM] | 9
CCC(=O)N(C)C[C@H]1Oc2cc(C#Cc3ccccn3)ccc2S(=O)(=O)N([C@@H](C)CO)C[C@@H]1C | -23[16.7 µM] | 1
C[C@@H]1CN([C@H](C)CO)S(=O)(=O)c2ccc(C#CC3CC3)cc2O[C@@H]1CN(C)C(=O)CN(C)C | 7[16.7 µM] | 1
COc1ccc(S(=O)(=O)Nc2ccc3c(c2)CC(=O)N([C@H](C)CO)C[C@@H](C)[C@H](CN(C)Cc2ccc(Cl)c(Cl)c2)O3)cc1 | -6[16.7 µM] | 12
C[C@H](CO)N1C[C@H](C)[C@H](CN(C)C(=O)CN2CCOCC2)Oc2cc(C#Cc3cccc(F)c3)ccc2S1(=O)=O | 3[16.7 µM] | 22
Cc1cccc(NC(=O)C[C@H]2CC[C@H]3[C@@H](COc4ccc(NC(=O)C5CCC5)cc4C(=O)N3C)O2)c1 | -20[16.7 µM] | 13
CC(C)NC(=O)Nc1cccc2c1O[C@H](CN(C)C(=O)Nc1ccccc1)[C@H](C)CN([C@@H](C)CO)C2=O | -24[16.7 µM] | 4
CN1C(=O)c2cc(NC(=O)C3CCOCC3)ccc2OC[C@H]2O[C@@H](CC(=O)NC3CCCC3)CC[C@H]21 | -7[16.7 µM] | 8
Cc1noc(C)c1NC(=O)N[C@H]1CC[C@@H](CC(=O)NCCCN(C)C)O[C@H]1CO | 12[16.7 µM] | -11
C[C@H]1CN([C@@H](C)CO)S(=O)(=O)c2ccc(-c3ccc(C(=O)N(C)C)cc3)cc2O[C@@H]1CN(C)C(=O)Cc1ccccn1 | 13[16.7 µM] | 2
C[C@@H](O)C#Cc1ccc2c(c1)O[C@@H](CN(C)C(=O)c1ccccc1)[C@@H](C)CN([C@@H](C)CO)S2(=O)=O | -1[16.7 µM] | -1
C[C@H](NC(=O)C[C@@H]1CC[C@H](NC(=O)C2CCOCC2)[C@@H](CO)O1)c1ccccc1 | 4[16.7 µM] | -4
CCOc1ccccc1N1CC(C(=O)NCCC2=CCCCC2)CC1=O (stereo not given) | -8 | -32
CN1C(=O)c2cc(NC(=O)Nc3ccccc3Cl)ccc2OC[C@@H]2O[C@H](CC(=O)O)CC[C@H]21 | -4[16.7 µM] | 0
COC(=O)C[C@H]1C[C@H]2c3cc(NC(=O)C4CCC4)ccc3O[C@H]2[C@@H](CO)O1 | -6[16.7 µM] | -11
O=C(N[C@@H]1C=C[C@H](CC(=O)N2CCOCC2)O[C@@H]1CO)c1cccc(F)c1 | 1[16.7 µM] | 3
CCC(=O)N(C)C[C@@H]1Oc2ncc(C#CCC3CCCC3)cc2C(=O)N([C@H](C)CO)C[C@H]1C | 0[16.7 µM] | 1
C[C@H]1CN([C@@H](C)CO)C(=O)c2cc(NS(=O)(=O)c3ccccc3)ccc2O[C@@H]1CN(C)Cc1ccc(C(=O)O)cc1 | 5[16.7 µM] | 23
C[C@H](CO)N1C[C@H](C)[C@@H](CN(C)Cc2ccccc2)Oc2ccc(NC(=O)C3CCCCC3)cc2C1=O | 1[16.7 µM] | 2
C[C@@H]1CCCCO[C@@H](CN(C)C(=O)NC2CCCCC2)[C@@H](C)CN([C@@H](C)CO)C(=O)c2cc(NS(=O)(=O)c3ccc(F)cc3)ccc2O1 | -69[16.7 µM] | 6
C[C@@H]1CCCCO[C@@H](CN(C)Cc2ccc(Cl)c(Cl)c2)[C@H](C)CN([C@@H](C)CO)C(=O)c2cc(NC(=O)NC3CCCCC3)ccc2O1 | 22[16.7 µM] | -5
CC(C)NC(=O)N(C)C[C@@H]1Oc2ccc(NC(=O)Nc3cccc4ccccc34)cc2CC(=O)N([C@@H](C)CO)C[C@@H]1C | 1[16.7 µM] | -2
Cn1cnc(S(=O)(=O)N[C@@H]2CC[C@H](CC(=O)NCC3CC3)O[C@H]2CO)c1 | 1[16.7 µM] | -14
O=C(Cc1ccccc1)N[C@H]1CC[C@H](CC(=O)N2CCCCC2)O[C@@H]1CO | -4[16.7 µM] | -6
O=C(Nc1ccc(F)cc1)N[C@@H]1CC[C@@H](CCNS(=O)(=O)c2ccccc2F)O[C@@H]1CO | -14[16.7 µM] | -8
CC(C)C(=O)Nc1ccc2c(c1)C(=O)N(C)[C@@H]1CC[C@@H](CC(=O)NCc3ccccc3)O[C@H]1CO2 | -3[16.7 µM] | 6
CC(C)NC(=O)N(C)C[C@H]1Oc2ncc(C#Cc3ccccc3F)cc2C(=O)N([C@@H](C)CO)C[C@@H]1C | -4[16.7 µM] | 3
COc1ccc(Cl)cc1-c1cc(C(=O)Nc2ccccc2)[nH]n1 | -112 | -15
O=C(C[C@H]1C[C@H]2c3cc(NC(=O)CC4CC4)ccc3O[C@H]2[C@H](CO)O1)NCCc1ccccc1 | -20[16.7 µM] | 5

Of the compounds above, 2 contain a cyano group.
SMILES | HIV Env fusion | Yeast UUG start
COCC(=O)N1[C@H](C#N)[C@H](c2ccc(C#Cc3ccccc3F)cc2)[C@@H]1CO | 2[16.7 µM] | 2
CC(C)C#Cc1ccc([C@@H]2[C@H](C#N)N(C(=O)CN(C)C)[C@H]2CO)cc1 | 12[16.7 µM] | 5

Further structures follow.
SMILES | HIV Env fusion | Yeast UUG start
Cc1noc(C)c1S(=O)(=O)Nc1ccc2c(c1)CC(=O)N([C@@H](C)CO)C[C@@H](C)[C@H](CN(C)S(=O)(=O)c1ccccc1)O2 | 2[16.7 µM] | 10
C[C@@H]1CCCCO[C@H](CN(C)C(=O)Cc2ccccc2)[C@H](C)CN([C@@H](C)CO)C(=O)c2cc(NS(=O)(=O)c3ccc(Cl)cc3)ccc2O1 | -14[16.7 µM] | -11
O=S(=O)(N[C@H]1CC[C@@H](CCNS(=O)(=O)c2ccccc2Cl)O[C@@H]1CO)c1ccccc1 | 2[16.7 µM] | 14
CO[C@H]1CN(C)C(=O)c2cc(NC(=O)c3cnccn3)ccc2OC[C@H](C)N(C)C[C@@H]1C | 1[16.7 µM] | -1
C[C@H]1CCCCO[C@H](CN(C)Cc2ccc3c(c2)OCO3)[C@@H](C)CN([C@@H](C)CO)C(=O)c2cc(NC(=O)Nc3ccc4c(c3)OCO4)ccc2O1 | 21[16.7 µM] | 1
C[C@@H]1CN([C@@H](C)CO)C(=O)Cc2cc(NC(=O)Nc3ccccc3)ccc2O[C@H]1CN(C)Cc1ccccc1 | 4[16.7 µM] | 12
C[C@H](CO)N1C[C@H](C)[C@H](CN(C)Cc2ccc(Cl)c(Cl)c2)Oc2ccc(NC(=O)Cc3ccccc3)cc2CC1=O | 30[16.7 µM] | 1
O=C1CS(=O)(=O)C(c2cccc([N+](=O)[O-])c2)N1c1ccccc1 (stereo not given) | -2[16.7 µM] | 1
C[C@@H]1CN([C@H](C)CO)C(=O)c2cc(NC(=O)C3CCCCC3)ccc2O[C@@H](C)CCCCO[C@H]1CN(C)C(=O)c1ccccc1 | -4[16.7 µM] | 10
O=C(O)C[C@@H]1C=C[C@@H](NC(=O)Nc2cc(F)ccc2F)[C@H](CO)O1 | 24[16.7 µM] | -6
CS(=O)(=O)Nc1ccc2c(c1)[C@@H]1C[C@@H](CC(=O)NCc3ccncc3)O[C@H](CO)[C@@H]1O2 | 5[16.7 µM] | -5
C/C=C/c1cnc2c(c1)C(=O)N([C@@H](C)CO)C[C@H](C)[C@H](CN(C)C(=O)c1cccnc1)O2 | -38[16.7 µM] | 9
Cc1cc(C)cc(N2C(=O)CS(=O)(=O)C2c2ccccc2)c1 (stereo not given) | -4[16.7 µM] | 0
COc1ccc(NC(=O)Nc2ccc3c(c2)[C@H]2C[C@@H](CC(=O)N4CCOCC4)O[C@@H](CO)[C@H]2O3)cc1 | 11[16.7 µM] | -8
C[C@H](CO)N1C[C@H](C)[C@H](CN(C)S(C)(=O)=O)Oc2c(NS(=O)(=O)c3ccc(F)cc3)cccc2C1=O | -47[16.7 µM] | -5
Cc1ccc(S(=O)(=O)N(C)C[C@@H]2OCCCC[C@H](C)Oc3ccc(NS(=O)(=O)c4cccs4)cc3C(=O)N([C@H](C)CO)C[C@H]2C)cc1 | -21[16.7 µM] | 11
Cc1noc(C)c1S(=O)(=O)Nc1ccc2c(c1)C(=O)N([C@@H](C)CO)C[C@H](C)[C@@H](CN(C)C(=O)CCCN(C)C)OCCCC[C@H](C)O2 | 3[16.7 µM] | 9
C[C@@H]1CN([C@@H](C)CO)C(=O)c2cccc(NC(=O)C3CC3)c2O[C@@H]1CN(C)S(=O)(=O)c1ccc(F)cc1 | -4[16.7 µM] | 14
COCCNC(=O)C[C@H]1CC[C@H](NC(=O)NC2CCCC2)[C@@H](CO)O1 | -23[16.7 µM] | -13
COc1ccccc1-c1ccc2c(c1)O[C@@H](CN(C)S(=O)(=O)c1ccc(C)cc1)[C@H](C)CN([C@H](C)CO)S2(=O)=O | 31[16.7 µM] | -8

A draw from above in order of count of non-hydrogen atoms, descending:
SMILES | HIV Env fusion | Yeast UUG start
Cc1ccc(S(=O)(=O)N(C)C[C@@H]2OCCCC[C@H](C)Oc3ccc(NS(=O)(=O)c4cccs4)cc3C(=O)N([C@H](C)CO)C[C@H]2C)cc1 | -21[16.7 µM] | 11
COc1ccccc1-c1ccc2c(c1)O[C@@H](CN(C)S(=O)(=O)c1ccc(C)cc1)[C@H](C)CN([C@H](C)CO)S2(=O)=O | 31[16.7 µM] | -8
C[C@H](CO)N1C[C@H](C)[C@H](CN(C)S(C)(=O)=O)Oc2c(NS(=O)(=O)c3ccc(F)cc3)cccc2C1=O | -47[16.7 µM] | -5
COCCNC(=O)C[C@H]1CC[C@H](NC(=O)NC2CCCC2)[C@@H](CO)O1 | -23[16.7 µM] | -13

Following part.
SMILES | HIV Env fusion | Yeast UUG start
C[C@H]1CN([C@@H](C)CO)C(=O)Cc2cc(NC(=O)NC3CCCCC3)ccc2O[C@@H]1CN(C)CC1CC1 | 0[16.7 µM] | -2
COc1ccc(NC(=O)N(C)C[C@H]2Oc3ncc(C#CCC(C)C)cc3C(=O)N([C@@H](C)CO)C[C@@H]2C)cc1 | 8[16.7 µM] | 4
Cc1noc(C)c1NC(=O)N[C@H]1CC[C@H](CCNC(=O)C2CCOCC2)O[C@@H]1CO | 1[16.7 µM] | 22
CC(C)NC(=O)N(C)C[C@@H]1Oc2c(NC(=O)C3CCCCC3)cccc2C(=O)N([C@H](C)CO)C[C@@H]1C | -43[16.7 µM] | 11
COc1ccc(CN2C[C@H](O)COC[C@@H]3O[C@@H](CC(=O)NCc4ccccc4Cl)CC[C@H]32)cc1 | 2[16.7 µM] | -16
C[C@@H]1CN([C@@H](C)CO)C(=O)c2cc(NS(=O)(=O)c3ccccc3)ccc2O[C@@H](C)CCCCO[C@@H]1CN(C)S(=O)(=O)c1ccccc1 | -27[16.7 µM] | 2
C[C@@H]1CCCCO[C@@H](CN(C)Cc2ccc3c(c2)OCO3)[C@H](C)CN([C@@H](C)CO)C(=O)c2cc(NS(=O)(=O)c3ccccc3)ccc2O1 | 1[16.7 µM] | 15
COCC(=O)Nc1ccc2c(c1)C(=O)N(C)C[C@H](OC)[C@H](C)CN(C(C)=O)[C@@H](C)CO2 | 2[16.7 µM] | 1
CNC(=O)C[C@H]1CC[C@H]2[C@H](COc3ccc(NS(=O)(=O)c4cccc(F)c4)cc3C(=O)N2C)O1 | 10[16.7 µM] | -5
C[C@@H]1CN([C@H](C)CO)C(=O)c2cc(NC(=O)C3CC3)ccc2O[C@@H]1CN(C)C(=O)Nc1ccc2c(c1)OCO2 | 6[16.7 µM] | 40
O=C(Nc1cccc(Cl)c1)N[C@H]1CC[C@@H](CCNC(=O)C2CCOCC2)O[C@@H]1CO | -3[16.7 µM] | 2
